Screens (PubChem BioAssay)
VDR inh – inhibitors of human vitamin D receptor | Potency, µM, inactives show max response, negative = inhibition, usual class: inhibitors | 0.93% of 400,000 active | VDR-SRC2-3 peptide fluorescence polarization, 2 h | P11473 | AID 504847; active = well fitted inhibition curve with a large enough effect; inconclusive = small, poorly fitted or top-dose-only effect, or another doubt; inactive = no such curve, though single readings can be large or run the other way; note: series mostly up to about 120 µM
Target sequence (P11473 whole entry, looked up): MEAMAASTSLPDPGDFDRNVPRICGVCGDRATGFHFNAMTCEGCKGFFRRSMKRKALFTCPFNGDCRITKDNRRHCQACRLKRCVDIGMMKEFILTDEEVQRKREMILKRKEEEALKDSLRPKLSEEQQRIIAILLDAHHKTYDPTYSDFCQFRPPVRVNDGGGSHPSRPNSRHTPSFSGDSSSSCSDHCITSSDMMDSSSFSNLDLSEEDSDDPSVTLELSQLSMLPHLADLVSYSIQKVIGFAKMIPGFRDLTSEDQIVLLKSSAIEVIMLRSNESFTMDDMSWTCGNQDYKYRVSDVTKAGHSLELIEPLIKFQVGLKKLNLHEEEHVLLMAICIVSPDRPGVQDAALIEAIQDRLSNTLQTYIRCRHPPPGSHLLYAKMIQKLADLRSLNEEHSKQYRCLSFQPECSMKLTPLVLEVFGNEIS
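Fluorescence polarization assay measuring small-molecule disruption of VDR binding to the coregulator peptide SRC2-3. Compounds were pin-transferred (23 nl) into the reagent mix and incubated 2 h at room temperature before reading.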
An asterisk follows results filed as active; ? = inconclusive. % is set by controls: 0 for no effect and ±100 for the full control effect; potency is the fitted concentration of half-maximal effect. A portion of the library. The share of hits here may be higher or lower than overall.

VDR inh,molecule
6%,Cc1ccc(N2C(=O)[C@@H]3CSC(c4ccc(Cl)cc4)N3C2=O)cc1 (some centres not stated)
-4%,CC(=O)N(C)c1cc([N+](=O)[O-])ccc1OCc1ccccc1
5%,C=CCn1c(NCc2ccc(OC)cc2)nc2ccccc21
-13%,Fc1ccc(Nc2c(-c3c[nH]c4ccccc34)nc3ccccn23)cc1
0%,N#C/C(=C\c1ccc[nH]1)C(=O)NCC1CCCO1 (configuration not stated)
1%,O=C(CCc1nc2ccccc2c(=O)[nH]1)N1CCCc2ccccc21
16%,CCCCn1c(N)c(S(=O)(=O)c2ccc(C)cc2)c2nc3ccccc3nc21
-4%,CC(C)NC(=O)N1CCC2(CC1)CCN(C(=O)c1cnccn1)CC2
1%,CCN(CC)c1ccc(/C=N/NC(=O)c2ccc(O)cc2)cc1
-3%,CC(C)(C)NC(=O)CSc1nnc(-c2ccncc2)n1Cc1ccccc1
-1%,O=C(CCCN1C(=O)S/C(=C\C=C\c2ccccc2)C1=O)Nc1ccc(O)cc1
-25%,COc1ccc(C(=O)N2CCC(C(=O)Nc3ccc(Cl)cc3)CC2)cc1
14%,COc1cccc(CCNC(=O)CCCC(=O)c2ccccc2)c1
-1%,O=C(Nc1ccc(Cl)cn1)c1cccc(F)c1
8%,Cc1ccc(-c2nnnn2CS(=O)(=O)c2ccccc2)cc1
-8%,COc1ccc(-c2nc(CS(=O)CC(=O)NC3CCC(C)CC3)c(C)o2)cc1OC (configuration not stated)
19%,Nc1ccc(-n2nnnc2CN2CCOCC2)cc1
-6%,O=C(NCn1cnccc1=O)c1ccccc1
-13%,S=C(NCc1ccc(Cl)cc1)NC12CC3CC(CC(C3)C1)C2
-21%,Cc1ccc(C)c(NC(=O)COC(=O)CC2c3ccccc3CCN2S(=O)(=O)c2ccc(F)cc2)c1 (configuration not stated)
0%,COc1ccc(S(=O)(=O)N2Cc3ccccc3CC2C(=O)Nc2cc(Cl)ccc2Cl)cc1 (configuration not stated)
-13%,COc1ccccc1CCNC(=O)C(=O)NCC1OCCN1S(=O)(=O)c1ccc(C)cc1 (configuration not stated)
7.9µM*,O=c1c(O)c(Br)ccc2c(Br)c(O)c(O)c(O)c12
-4%,CCc1nnc(NC(=O)Cn2c(=O)oc3ccccc32)s1
0%,CCc1ccc(-n2c(SCc3cc(=O)n4cc(Br)ccc4n3)nc3[nH]ncc3c2=O)cc1
-10%,COc1ccc(S(=O)(=O)N2CCOC23CCN(S(=O)(=O)c2ccc(C)cc2)CC3)cc1
-9%,CC(C)CNC(=O)c1cc([N+](=O)[O-])ccc1N1CCOCC1
-3%,O=S(=O)(NC1CCCCC1N1CCN(c2ccccc2F)CC1)c1ccc(Cl)cc1 (configuration not stated)
7%,CCOc1ccc(-c2ncncc2-c2ccccc2OC)c(O)c1
14%,O=C(c1ccccc1)N(C(=O)c1ccccc1)N1CCCC1
2%,O=C(CSc1nnc(CNC(=O)c2c(F)cccc2Cl)o1)NCc1ccccc1
-22%,CCC(CC)C1=NN2C(=N)/C(=C/c3ccc(OC(=O)c4ccco4)cc3)C(=O)N=C2S1
6%,Cc1cccc(NC(=O)Cc2ccc(F)cc2)c1
-11%,CCc1cccc(C)c1NC(=O)c1cc(=O)[nH]c2ccc(S(=O)(=O)N3CCOCC3)cc12
10%,O=C(Nc1ccc(-c2nc3cc(NC(=O)c4ccccc4Cl)ccc3o2)cc1)c1ccccc1Cl
-14%,Cc1ccc(OCCn2cc(Br)c(=O)[nH]c2=O)cc1
-18%,CCc1ccc(N2C(=O)CC(Cn3nc(C)cc3C)C2=O)cc1 (configuration not stated)
7%,Cc1ccccc1NC(=O)N(O)C1(C#N)CCCCC1
-19%,CC(C)(C)c1nc[nH]c(=O)c1Br
-3%,Cn1cc(-c2cc3n(n2)CCC(=O)N3CCCC(=O)Nc2ccc(F)cc2F)c2ccccc21
1%,CC(C)(C)NC(=O)C(=O)NNC(=O)c1ccc(C(C)(C)C)cc1
?,CCCC1=NN(c2ccc([N+](=O)[O-])cc2)C(=O)/C1=C\N(C)C
-6%,CCCn1c(=O)c2c(C(F)(F)F)cc(-c3cccs3)nc2n(CCC)c1=O
-5%,CC(C)(C)OC(=O)NN=C(c1ccc(O)cc1)c1ccc(O)cc1
-11%,COc1cccc(-n2ccnc2SCC(=O)Nc2cc(C)on2)c1
2%,CC1=CCC2COC(c3ccc[n+](Cc4ccccc4)c3)C1C2 (configuration not stated)
0%,Cc1cccc(-n2c(=O)[nH]c3c(C(N)=O)nc(-c4ccccc4Cl)nc32)c1
6%,CCOC(=O)c1c[nH]c2c(C(F)(F)F)cccc2c1=O
-14%,O=C(CN(C(=O)c1ccccc1)C(=O)c1ccccc1)OCc1ccccc1
-15%,COc1ccc(Nc2cc(C(=O)NCCCN3CCN(c4ccccc4F)CC3)c3ccccc3n2)c(OC)c1
0%,CCOc1ccc(CNc2cccc(SC)c2)cc1
10%,CCN(CC)C(=O)/C=C/c1ccc(OC)c(S(=O)(=O)N2CCCCC2)c1
-9%,Cc1ccc(Cl)cc1NC(=O)CCS(=O)(=O)c1cccc2nonc12
18%,C=CCSc1ccc(S(=O)(=O)N2CCN(C)CC2)cn1
-1%,Cc1ccc(Cn2c(=O)n(CC3CCC(C(=O)N4CCOCC4)CC3)c(=O)c3sccc32)cc1 (configuration not stated)
-7%,CCOC(=O)Cn1nnc2c(sc3nc4c(c(-c5ccccc5)c32)CCC4)c1=O
-7%,CC(C)(C)C(=O)Nc1nnc(SCc2ccc(F)cc2)s1
-3%,CCOC(=O)C(C)Sc1nc2c([nH]c3ccccc32)c(=O)n1C (configuration not stated)
9%,CCOc1ccccc1-n1cnc(C#N)c1N
0%,NC(=O)[C@H]1CC2(CC(c3cccc(NC(=O)COc4ccc(Cl)cc4)c3)=NO2)CN1C(=O)C(c1ccccc1)c1ccccc1 (some centres not stated)

Going on with the list.
VDR inh,molecule
?,CO[C@]12C[C@@H](COC(=O)c3cncc(Br)c3)CN(C)[C@@H]1Cc1cn(C)c3cccc2c13
16%,CCOc1ccccc1NC(=O)CSc1nnc(CNC(=O)COc2ccc(Cl)cc2)o1
-12%,Cn1c(O)c(N=Nc2ccccc2)c2ccccc21
?,CCOc1ccc(S(=O)(=O)NCCC(=O)NC2CCN(Cc3ccccc3)CC2)cc1
-8%,N#C/C(=C\c1ccccc1Cl)C(=O)NC(=O)Oc1ccccc1
-11%,O=C(COC(=O)CCc1ccc(S(=O)(=O)N2CCOCC2)cc1)Nc1ccccc1[N+](=O)[O-]
-8%,O=C(CC12CC3CC(CC(C3)C1)C2)N1CCN(S(=O)(=O)c2cccs2)CC1
-6%,CCOc1ncccc1C(=O)Nc1ccccc1N1CCOCC1
5%,O=S(=O)(Nc1cccc(-n2cnnn2)c1)c1ccc(F)cc1
3%,N#CC(c1ccc(Cl)cc1)N1CCOCC1 (configuration not stated)
-19%,Cc1c(Cl)cccc1-c1ccc(C(=O)Nc2ccc3oc(-c4cccnc4)nc3c2)o1
-4%,O=C(CN1C(=O)COc2ccccc21)NCCN1CCOCC1
-12%,O=C(O)Cc1n[nH]c(=O)c2ccccc12
?,COC(=O)C1=C(C)N(Cc2ccc(C)cc2)C(=O)/C1=C\c1ccc(O)c(OC)c1
7%,O=C1C2C3c4ccccc4C(Br)(c4ccccc43)C2C(=O)N1c1ccccc1O (configuration not stated)
12%,CCCCNC(=O)Nc1cc(C(=O)OC)ccc1Cl
16%,O=C(Nc1ccc(S(=O)(=O)Nc2ncccn2)cc1)c1ccc(N2CCCC2=O)cc1
5%,Cc1ccc(OCC(=O)N/N=C\c2c(C)[nH]n(-c3ccccc3)c2=O)c([N+](=O)[O-])c1
-12%,Cc1c(Cl)cccc1NC(=S)NCCCN(C)C
9%,CCOC(=O)C1=C(C)Nc2ccccc2N=C1NC(=O)c1cccc(S(=O)(=O)N(C)C)c1
-6%,COc1ccc(-c2cc(-c3ccccc3O)[nH]n2)cc1
-4%,COC(=O)/C(=C\Nc1ccc(Cl)c2ccccc12)c1ncc(C(F)(F)F)cc1Cl
-29%,Fc1cccc2sc(Nc3nc4ccccc4s3)nc12
8%,O=C(NCCSc1ccccc1)c1ccco1
1%,COc1ccc(-n2nc3cc(C)c(NC(=O)c4ccc(-c5ccc(Cl)cc5)o4)cc3n2)cc1
-11%,CC(=O)C1=C(O)C(=O)N(c2ccc(O)cc2)C1c1ccccc1 (configuration not stated)
3%,Oc1ccccc1-c1nc(NCc2ccco2)c2ccccc2n1
-6%,CCOc1cc(C(=O)NCc2nc(-c3cccc(C)c3)no2)cc(OCC)c1OCC
16%,CCN(CC(=O)Nc1ccccc1C(=O)OC)S(=O)(=O)c1ccc(OC)cc1
6%,CC(C)Oc1ccc(CNC(=O)c2cc(S(=O)(=O)N3CCOCC3)cn2C)cc1
-9%,COc1ccc(C(=O)OCC(=O)NC(=O)CCSc2ccccc2)cc1
11%,CC(=O)Nc1ccc(NC(=O)C(C)OC(=O)COc2ccc(Nc3ccccc3)cc2)cc1 (configuration not stated)
-11%,Cc1csc(SCC(=O)c2ccc(S(=O)(=O)N3CCOCC3)cc2)n1
5%,Cc1ccc(C)c(N2CCN(C(=O)CC3Sc4ccccc4NC3=O)CC2)c1 (configuration not stated)
-4%,CCC(C)NC(=O)CN(c1cc(C)cc(C)c1)S(=O)(=O)c1c(C)[nH]c(=O)[nH]c1=O (configuration not stated)
-19%,Cc1cc(C)n(/N=C\c2c(O)ccc3ccccc23)c(=O)c1C(N)=O
9%,C=C(C)Cn1c(SCC(=O)c2ccc(Br)cc2)nc2sc3c(c2c1=O)CCCC3
-3%,COc1ccc(N(CC(=O)NCc2ccc3c(c2)OCO3)S(=O)(=O)c2c(C)nn(C)c2C)cc1
4%,CCCOc1ccc(C(=O)Nc2ccc(C)cc2[N+](=O)[O-])cc1
-10%,CCCCCCSc1ccc(-c2nc3ccc(C)cn3c2NCc2ccccc2)cc1
8%,O=C(NCc1nc(-c2ccc(Cl)cc2)no1)c1ccco1
0%,O=C(COC(=O)CSc1ccc(Cl)cc1)NCCc1ccccc1
?,COc1cc(C(=O)N/C(=C\c2cn(C)c3ccccc23)C(=O)NCCCN2CCOCC2)cc(OC)c1OC
13%,CCn1nc(CC(=O)Nc2nnc(CC(=O)N3CCOCC3)s2)c2ccccc2c1=O
12%,CC(C)(C)OC(=O)[C@H](Cc1ccccc1)NC(=O)c1nc[nH]c1C(=O)N[C@@H](CCCCN)C(=O)OC(C)(C)C
17%,CCC1CCCCN1C(=O)CCc1nnc(Cc2c[nH]c3ccccc23)o1 (configuration not stated)
11%,Cc1nc2c(sc3nc4c(cc32)COC(C)(C)C4)c(=O)o1
2%,CCC(C)(C)NC(=O)C(c1ccc(C)o1)N(C(=O)c1csnn1)c1cccc(F)c1 (configuration not stated)
-9%,Cc1ccc(C(=O)N/C(=C\C=C\c2ccccc2)C(=O)NCc2ccco2)cc1
?,O=C(O)c1ccccc1NC(=S)NC(=O)c1sc2ccccc2c1Cl
-4%,O=C(NCCN1CCN(C(=O)c2ccc([N+](=O)[O-])cc2)CC1)C(=O)NCc1ccccc1
15%,O=C(O)CNc1ccc(S(=O)(=O)C(F)(F)F)cc1[N+](=O)[O-]
-6%,O=C(CN1CCC(n2nnc3cc(C(F)(F)F)ccc32)CC1)Nc1ccc2c(c1)CCC2
-3%,COCCCN1C(=O)c2ccc(C(=O)Nc3cccc(OC)c3)cc2C1=O
-17%,Cc1ccccc1NCC(=O)Nc1cc(S(=O)(=O)N2CCCCC2)ccc1C
6%,CCOC(=O)c1ccc(S(=O)(=O)N2CCN(C3CCCC3)CC2)cc1
-5%,COc1ccccc1C(=O)N/N=C(\C)c1ccc(NC(=O)C2CC2)cc1
-2%,CCCN(CCC)CCNC(=O)c1cn(C)c(=O)c2c1c1ccccc1n2C
-4%,CCN1CCN(C(=O)NS(=O)(=O)c2ccc(C)cc2)CC1
-2%,COc1cc(C(=O)NCC(c2ccccc2)N(C)C)ccc1OCC(=O)N1CCOCC1 (configuration not stated)

Next section:
VDR inh,molecule
11%,O=C(NCCS(=O)(=O)N1CCN(c2ccc(F)cc2)CC1)c1ccccc1Br
9%,O=C(NC1CC1)C1CCN(S(=O)(=O)c2cc(Cl)ccc2Cl)CC1
9%,CCN(CC)S(=O)(=O)c1cccc(-c2nnc(SCC(=O)NC)n2CCc2ccccc2)c1
-15%,C[C@H](CO)N1C[C@H](C)[C@@H](CN(C)C(=O)Nc2ccc(F)cc2)Oc2ccc(NS(C)(=O)=O)cc2C1=O
-4%,Cn1c(C(=O)NCCCN2CCN(c3ccccc3F)CC2)cc2c(=O)[nH]c3ccccc3c21

15 compounds out of the list, arranged by formula weight, smallest number first:
VDR inh,molecule
-19%,CC(C)(C)c1nc[nH]c(=O)c1Br
3%,N#CC(c1ccc(Cl)cc1)N1CCOCC1 (configuration not stated)
14%,O=C(c1ccccc1)N(C(=O)c1ccccc1)N1CCCC1
4%,CCCOc1ccc(C(=O)Nc2ccc(C)cc2[N+](=O)[O-])cc1
1%,CC(C)(C)NC(=O)C(=O)NNC(=O)c1ccc(C(C)(C)C)cc1
7%,CCOc1ccc(-c2ncncc2-c2ccccc2OC)c(O)c1
-14%,Cc1ccc(OCCn2cc(Br)c(=O)[nH]c2=O)cc1
15%,O=C(O)CNc1ccc(S(=O)(=O)C(F)(F)F)cc1[N+](=O)[O-]
-9%,Cc1ccc(C(=O)N/C(=C\C=C\c2ccccc2)C(=O)NCc2ccco2)cc1
6%,CC(C)Oc1ccc(CNC(=O)c2cc(S(=O)(=O)N3CCOCC3)cn2C)cc1
-8%,COc1ccc(-c2nc(CS(=O)CC(=O)NC3CCC(C)CC3)c(C)o2)cc1OC (configuration not stated)
-2%,COc1cc(C(=O)NCC(c2ccccc2)N(C)C)ccc1OCC(=O)N1CCOCC1 (configuration not stated)
1%,COc1ccc(-n2nc3cc(C)c(NC(=O)c4ccc(-c5ccc(Cl)cc5)o4)cc3n2)cc1
-10%,COc1ccc(S(=O)(=O)N2CCOC23CCN(S(=O)(=O)c2ccc(C)cc2)CC3)cc1
-11%,O=C(COC(=O)CCc1ccc(S(=O)(=O)N2CCOCC2)cc1)Nc1ccccc1[N+](=O)[O-]
